# Bioassay records from PubChem BioAssay.
# YopH PTP inh: YopH (Yersinia) phosphatase inhibition | actives 0.16% (n = 140,000) | fluorescence Ex485/Em525 | inhibition, %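 (about 10 µM by stock and volumes)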;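 active = inhibition of 50% or more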;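 also: controls were vehicle for no effect and minimum signal wells for full effect; inactives centre near -20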
# Mtb growth: M. tuberculosis H37Rv growth inhibitors, H37Rv strain (AID 1626); inhibition, % at 10 µM, or IC50 in µM where a hit was titrated; actives 0.95% (n = 220,000); M. tuberculosis H37Rv growth inhibition; higher % means a stronger effect;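 active = confirmed in a dose series; inconclusive = inhibition above 80% but not taken into the dose series; inactive = below 80% or under 30% at every dose of the series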;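 also: bacteria incubated seven days before Alamar blue readout; 0% = bacteria only wells and 100% = bacteria with antibiotic wells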
# Mtb betalactam: beta-lactam sensitization of Mtb H37Rv; inhibition, % at 25 µM; M. tuberculosis H37Rv growth with meropenem, percent inhibition; hits of this screen are not shown here; actives 0.27% (n = 330,000);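 active = about 74% or more and at least 40 points above the plate without the antibiotic, then above 30% in a dose series; inconclusive = first-round hits that could not be retested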;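 also: growth measured after seven days incubation then overnight dye step; 0% = bacteria only wells and 100% = bacteria with antibiotic; twin plates without the antibiotic show which effects depend on it; some results filed as inactive read as strong as hits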
# Arbovirus inh: antivirals against arbovirus infection; arbovirus infection cell-based antiviral screen; inhibition, % at 10 µM; actives 0.37% (n = 200,000); AID 1251;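 active = inhibition from about 30%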;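 also: bluetongue infection of BSR cells; cell survival read as ATP light after 72 h; 0% = infected wells without compound and 100% = uninfected wells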
# RecA splice inh: blocks M. tuberculosis RecA intein splicing. P9WHJ3. cell-free RecA intein splicing, fluorescence. inhibition, %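 (about 9 µM by stock and volumes)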. actives 0.75% (n = 290,000). AID 2221; in the data active = inhibition above about 30%; inconclusive = no clear call, values can overlap the other calls;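 also: 0% = vehicle wells and 100% = reference inhibitor control wells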
# Target sequence (P9WHJ3 whole entry, looked up, canonical isoform): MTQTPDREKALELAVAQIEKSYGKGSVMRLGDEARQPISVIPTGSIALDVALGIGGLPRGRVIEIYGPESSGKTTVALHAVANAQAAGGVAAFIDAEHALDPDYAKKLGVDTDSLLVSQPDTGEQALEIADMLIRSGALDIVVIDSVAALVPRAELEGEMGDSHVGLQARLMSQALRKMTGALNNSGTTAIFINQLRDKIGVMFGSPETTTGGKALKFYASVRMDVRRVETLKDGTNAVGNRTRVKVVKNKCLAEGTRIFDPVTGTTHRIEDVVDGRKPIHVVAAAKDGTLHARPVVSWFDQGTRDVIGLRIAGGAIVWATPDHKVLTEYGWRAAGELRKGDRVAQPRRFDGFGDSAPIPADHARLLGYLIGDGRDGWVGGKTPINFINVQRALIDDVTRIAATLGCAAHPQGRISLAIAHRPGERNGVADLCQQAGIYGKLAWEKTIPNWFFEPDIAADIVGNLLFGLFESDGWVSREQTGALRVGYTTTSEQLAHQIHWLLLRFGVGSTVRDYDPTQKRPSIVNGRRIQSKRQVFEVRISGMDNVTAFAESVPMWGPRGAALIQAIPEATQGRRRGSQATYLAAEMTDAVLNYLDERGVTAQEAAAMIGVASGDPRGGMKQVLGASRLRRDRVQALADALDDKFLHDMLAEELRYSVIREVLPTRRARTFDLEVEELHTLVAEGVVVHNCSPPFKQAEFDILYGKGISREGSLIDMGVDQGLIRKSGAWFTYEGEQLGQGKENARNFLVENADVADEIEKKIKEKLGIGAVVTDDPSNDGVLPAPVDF
# Arbovirus inh repeat: also measured in Arbovirus inh; calls as there; inhibition, %; measured here: 10K subset replicate screen; many hits read low in the repeat;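 first of two repeat runs on a subset; 0% = infected and 100% = uninfected wells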
# Starred values were filed as active, the others as inactive; ? = inconclusive; / = no result given. A portion of the library, so the mix of outcomes need not match the whole.
SMILES,YopH PTP inh,Mtb growth,Mtb betalactam,Arbovirus inh,RecA splice inh,others
Cc1ccc(-n2ncc3c(NCc4cccnc4)ncnc32)c(C)c1,-21,-6%,1,7,1.3,
CCn1cc(Cl)c(C(=O)Nc2nc3ccccc3n2CCN2CCCCC2)n1,-47,4%,19,1,-3.7,Arbovirus inh repeat=-7
CC(NC(=O)C(C)N1CCN(Cc2ccccc2)CC1)c1ccc(F)cc1 (centres undefined),/,/,-10,/,0.9,
Cc1ccc(S(=O)(=O)Oc2ccccc2/C=C2/SC(=O)NC2=O)cc1,/,-4%,20,/,/,
O=C/C(=C\Nc1ccc(Br)cc1)c1nc2ccccc2o1,/,0%,2,-11,-2.2,
CCOC(=O)Nc1ccc2nc(N3CCCCCC3)sc2c1,/,18%,-2,/,3.6,
Cc1nc(C(=O)Nc2cc(Cl)ccc2Cl)nn1-c1cc(OC(C)C)c(Cl)cc1Cl,-21,-7%,3,-2,2.0,
Cc1ccc(C2C(C=Nc3c(C)n(C)n(-c4ccccc4)c3=O)=C(c3ccccc3)Oc3ccccc32)cc1 (centres undefined),12,1%,-1,17,0.5,
C/C(CC(=O)NCc1ccco1)=N\NC(=O)COc1ccc(Cl)cc1Cl,/,2%,-2,-20,1.5,
Cc1nc(Nc2ccc(C(=O)O)cc2)sc1-c1ccccc1,/,7%,14,-15,-3.1,
CC1(C)CC(N2CN(C3CCCCC3)CC2=O)CC(C)(C)N1,-9,-7%,-3,5,-3.0,
COc1ccc(N2CC(C(=O)OCC(=O)Nc3cccc(C)c3C)CC2=O)cc1 (centres undefined),/,/,1,/,-3.2,
CCn1c(SCC(=O)Nc2nonc2C)nnc1-c1ccoc1C,-30,0%,-1,7,-1.7,
CC(=Nc1ccccc1)c1sc2ccccc2c1O,18,2%,11,14,-6.0,
CCS(=O)(=O)Nc1cccc(C2=NN(S(=O)(=O)CC)C(c3ccccc3)C2)c1 (centres undefined),/,-12%,-8,1,0.8,
COc1ccccc1CCC(=O)N(Cc1ccccc1)c1c(N)n(Cc2ccccc2)c(=O)[nH]c1=O,/,/,-17,/,6.5,
CCN(CC)S(=O)(=O)c1ccc2oc(SCC(=O)NC3CC3)nc2c1,/,/,1,/,1.5,
CCN(CC)C(=O)CNC(=O)c1nn(-c2ccc(OC)c(Cl)c2)c(=O)c2ccccc12,/,/,4,/,3.1,
CCCn1c(NC(=O)CCS(=O)(=O)c2ccc(C)cc2)nc2ccccc21,/,/,59,/,-11,
CC(C)C(NC(=O)c1ccccc1NC(=O)c1ccco1)C(=O)NNC(=O)c1ccncc1 (centres undefined),/,-3%,-8,/,6.6,
Nc1nc(N)c(C=Nc2ccc(Br)cc2)c(Nc2ccc(Br)cc2)n1,/,78%,55,/,-2.7,
O=C(NC1CCCC1)c1ccc(CS(=O)Cc2ccc(Cl)cc2)o1 (centres undefined),/,/,-4,/,1.1,
O=C(O)c1ccccc1C(=O)Nc1nc(-c2ccccc2)cs1,/,/,-4,/,-4.8,
CCOc1ccccc1OCCCC(=O)OCC(=O)Nc1cccc(Cl)c1,-12,-9%,0,2,-0.3,
COc1cc(/C=N/O)ccc1OCc1ccccc1Cl,/,9%,8,-1,2.1,
O=C(COC(=O)C1CCN(S(=O)(=O)c2ccc3c(c2)OCCO3)CC1)Nc1ccccc1OC(F)F,-8,-8%,2,-5,1.1,
O=C(Cc1ccc(S(=O)(=O)N2CCOCC2)s1)NCCOc1ccccc1,/,/,3,/,-1.4,
CCC(=O)N1CCN(c2ccc(NC(=O)COc3cccc(C)c3C)cc2)CC1,/,/,33,/,-1.3,
Cc1ccc(C(=O)NC(=S)Nc2ccc3[nH]c(=O)[nH]c3c2)cc1C,3,13%,1,-1,-1.7,
CCOc1cc(/C=N/NC(=O)C2CCCC2)ccc1OC(C)C,/,/,-4,/,-3.2,
O=C(O)CCN1CCc2ccccc2C1c1ccncc1 (centres undefined),/,/,-1,/,-0.3,
COc1ccc(OC)c(-c2cc(C(=O)N3CCCc4ccccc43)no2)c1,-45,14%,23,2,0.5,
Cc1ccc(CNC(=S)NCc2ccncc2)cc1,/,6%,2,9,0.5,
CC1CN(C)C(C)C/C1=N\Oc1ccc([N+](=O)[O-])cc1 (centres undefined),/,-1%,-7,-18,1.5,
O=C(CN1CCCCC1)N/N=C/c1ccccc1OCc1ccccc1,-24,-5%,6,-1,-2.8,
Cc1cc(Br)ccc1OCC(=O)N1CCCCCC1,-9,-2%,-8,0,3.5,
C=CCc1ccccc1Oc1cc(F)nc(N)n1,/,/,2,/,2.6,
CN(C)C(Cc1ccccc1)C(=O)c1c[nH]c2ccccc12 (centres undefined),/,/,-3,/,2.5,
COc1ccc(C(=O)Nc2nnc(SCC(=O)NCC3CCCO3)s2)cc1OC (centres undefined),/,/,-15,/,0.3,
CC(C)c1ccc(NC(=O)C2CCN(C(=O)[C@@H]3Cc4ccccc4CN3)CC2)cc1,/,/,2,/,0.6,
COc1ccc(CN2CCN(Cc3cc(=O)oc4cc(C)ccc34)CC2)c(OC)c1OC,/,/,-10,/,1.6,
CC(C)c1ccc(NC2CCCN(C(=O)c3ccoc3)C2)cc1 (centres undefined),/,/,-7,/,3.1,
COC(=O)c1[nH]c2cc(C)ccc2c1NC(=O)CN1CCN(c2ccccc2OC)CC1,-45,45%,77,-14,-2.0,
COc1cc(C#N)c(NS(=O)(=O)c2ccc3[nH]c(=O)sc3c2)cc1OC,/,/,3,/,-0.5,
CCc1cc(C)c(O)c(CC)n1,-11,-10%,-16,-3,-3.0,
COC(=O)Cc1cc(=O)[nH]c(/N=C(\N)Nc2cccc(C)c2)n1,/,-2%,-8,4,-2.4,
Cc1ccc(P(=O)(CSC(=N)N)c2ccc(C)cc2)cc1,-27,1%,3,-22,13,
CC(C)C(=O)c1cn(CC(=O)N2CCCc3ccccc32)c2ccccc12,-15,-3%,0,5,0.7,
NC(=O)c1ccsc1NC(=O)COC(=O)COc1ccccc1F,-20,15%,1,2,-3.0,
CCOc1ccccc1OCCCC(=O)N1CCN(S(=O)(=O)c2ccc(C)cc2)CC1,-15,-9%,3,-2,-0.2,

# (listing goes on)
SMILES,YopH PTP inh,Mtb growth,Mtb betalactam,Arbovirus inh,RecA splice inh,others
CCc1nnc(NC(=O)CSc2nnc(-c3cccnc3)n2C)s1,/,3%,-3,3,-3.4,
CC(=O)Nc1ccc(NC(=O)CN(C)S(=O)(=O)c2ccc3c(c2)CCC(=O)N3)cc1,/,/,-3,/,1.6,
CCOc1ncccc1-c1nc(-c2cccs2)no1,/,/,5,/,3.2,
CCN(CC)c1ccc(C2C3CCCCC3(O)CCN2CC(=O)N2CCCCC2)cc1 (centres undefined),16,-1%,-10,-4,-0.6,
CCOC(=O)C1=C(O)/C(=C/c2ccc(OCC(=O)O)c(OCC)c2)SC1=Nc1ccc(OC)cc1,-21,9%,53,0,-1.5,
Cc1onc(-c2ccccc2)c1CNS(=O)(=O)c1cccc(Br)c1,/,6%,0,/,2.2,
COc1ccccc1NS(=O)(=O)c1cc(NC(=O)CCNC(C)=O)ccc1C,/,-7%,-4,20,-1.2,
O=C(NC(Nc1nc2ccccc2s1)(C(F)(F)F)C(F)(F)F)c1ccccc1,-12,-8%,9,4,-1.9,
O=C(Nc1ccccc1)C12CC3CC(C1)CC(n1cnc([N+](=O)[O-])n1)(C3)C2,-32,3%,-2,6,0.3,
Cc1cc(Nc2nc3ccccc3[nH]c2=O)n(-c2ccccc2)n1,-23,/,-3,-7,/,
O=CN1CCc2scc[n+]2-c2ccccc21,-7,4%,-14,4,-2.5,
CC1CN(C(=O)c2ccc(S(=O)(=O)Nc3cccc(C(F)(F)F)c3)cc2)CC(C)O1 (centres undefined),/,/,-2,/,-4.3,
CCOc1ccc(OCCCCn2cnc3ccccc3c2=O)cc1,/,11%,2,4,-0.9,
Cc1ccc(NC(=O)CS(=O)CC(=O)NC(C)CCc2ccco2)cc1Cl (centres undefined),-30,54%,19,0,-1.4,
CCn1c(=O)n(CC)c2cc(N3CCCC3)c(NC(=O)c3ccc(C)cc3)cc21,/,/,86,/,-5.0,
Cc1sc(N)nc1-c1c(C)n(C)c2ccccc12,/,/,4,/,-0.9,
CCOc1ccc(N=C(C)c2ccccc2O)cc1,-25,?,97,-9,-0.8,
O=C(CN1CCCC1)N1c2ccccc2Sc2ccccc21,5,6%,-5,-6,-14,
CCOc1ccc(NC(=O)C(c2ccccn2)N(C(=O)CCl)c2ccc(OC)cc2)cc1 (centres undefined),12,94%,91,-7,27,
CC1CCN(C(=O)C(C)Sc2nc(-c3ccccc3)cc(C(F)(F)F)n2)CC1 (centres undefined),-5,13%,-4,-29,19,
COc1ccc(CCN2CC34C=CC(O3)C(C(=O)NCc3ccccc3Cl)C4C2=O)cc1OC (centres undefined),0,-7%,-14,1,-0.4,
Cc1c(C)c2ccc(OCC(=O)Nc3ccc(CN4CCOCC4)cc3)cc2oc1=O,/,/,4,/,1.0,
O=c1c2ccccc2ncn1Cc1ccco1,-53,-2%,7,-8,1.8,
S=c1[nH]nc(-c2cc(-c3ccccc3)n[nH]2)n1/N=C/c1ccc(Br)s1,/,/,4,/,2.7,
Cc1ccc(OCCC(=O)Nc2c(C)n(C)n(-c3ccccc3)c2=O)cc1,-15,-7%,-22,7,/,
CN(C)CCCN(C(=O)c1ccc(S(=O)(=O)N(C)Cc2ccccc2)cc1)c1nc2c(F)cccc2s1,/,/,3,/,3.8,
O=C(COC(=O)c1ccccc1N1C(=O)C2C3CCC(C3)C2C1=O)c1ccccc1 (centres undefined),-23,0%,2,8,-2.1,
Cc1cc(C)c(NS(=O)(=O)c2c(C(=O)N3CCOCC3)c(C)n(C)c2C)c(C)c1,/,/,12,/,-2.3,
COc1ccc(S(=O)(=O)NC2CCCCC2)cc1F,/,/,-6,/,0.6,
CCCc1cc(=O)oc2cc(C)cc(OCc3nn[nH]n3)c12,-24,-8%,-11,4,-0.5,
COc1ccc2sc(N(CCCN(C)C)C(=O)c3ccc(C(=O)c4ccccc4)cc3)nc2c1,/,/,-8,/,4.4,
CC(C)C(NC(=O)C1CCCCC1)C(=O)Nc1ccc2c(c1)OCCO2 (centres undefined),-42,-1%,-3,5,0.7,
CC1=C(C(=O)OCc2ccccc2)C(c2cccnc2)n2ncnc2N1 (centres undefined),-41,-7%,-3,-1,-0.9,
Cc1ccnc2nc(C(=O)Nc3ccc(S(=O)(=O)N4CCCC4)cc3)nn12,/,3%,-9,/,/,
CC(C)N(CCO)C(=O)CCc1nnc(CCCc2ccccc2)o1,/,2%,-7,2,1.2,
Cc1ccc(N2C(=O)C3ON(c4ccccc4)C(c4ccncc4)C3C2=O)cc1 (centres undefined),-35,-6%,-4,0,4.0,
O=S(=O)(c1ccc(Cl)cc1Br)N1CCCCC1,-5,1%,2,-4,2.6,
CC1CCN(CC(=O)c2c[nH]c3ccccc23)CC1,-35,0%,-1,3,-0.6,
CCOC(=O)N1CCN(S(=O)(=O)c2c(C)nc3scc(C)n3c2=O)CC1,/,/,-3,/,1.2,
Cc1ccc(S(=O)(=O)NCC(=O)OCC(=O)NCc2cccs2)cc1,/,/,-5,/,1.6,
COc1ccc(CCNC(=O)C(=O)NCC2OCCN2S(=O)(=O)c2ccc(Br)cc2)cc1 (centres undefined),-16,14%,6,-1,-5.4,
Cn1c(=O)c2c(nc(SCC(=O)Nc3ccccc3N3CCCCC3)n2C)n(C)c1=O,11,-9%,-5,0,3.2,
CC(C)C(NC(=O)c1ccccc1)c1nnc(SCC(=O)NC2CCCC2)n1C (centres undefined),/,/,0,/,0.4,
O=C(CS(=O)c1ccc(Br)cc1)N1CCOCC1 (centres undefined),/,/,-4,/,-4.3,
COc1ccc(CCNC(=O)Cn2cnc3ccccc3c2=O)cc1OC,-16,3%,8,-4,-0.9,
O=C1CSC(=Nc2ccc(F)cc2)N1,/,/,2,/,-0.8,
